Screening results deposited in PubChem BioAssay by Johns Hopkins Ion Channel Center.
KCNQ2 inh – KCNQ2 potassium channel inhibitors, primary screen, cell-based, CHO-K1, FluxOR thallium flux, B-score (AID 2156) | O88943 | 20 min; active compounds read low; only compounds with negative scores are shown here; some inactives read as strong as hits | B-score at 10 µM | 1.1% of 310,000 active;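 active = fluorescence ratio B-score at most minus 3 library SDs, with starting brightness B-score within 2 library SDs, cut at about -5.5 in these data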
Target sequence (O88943 whole entry, looked up): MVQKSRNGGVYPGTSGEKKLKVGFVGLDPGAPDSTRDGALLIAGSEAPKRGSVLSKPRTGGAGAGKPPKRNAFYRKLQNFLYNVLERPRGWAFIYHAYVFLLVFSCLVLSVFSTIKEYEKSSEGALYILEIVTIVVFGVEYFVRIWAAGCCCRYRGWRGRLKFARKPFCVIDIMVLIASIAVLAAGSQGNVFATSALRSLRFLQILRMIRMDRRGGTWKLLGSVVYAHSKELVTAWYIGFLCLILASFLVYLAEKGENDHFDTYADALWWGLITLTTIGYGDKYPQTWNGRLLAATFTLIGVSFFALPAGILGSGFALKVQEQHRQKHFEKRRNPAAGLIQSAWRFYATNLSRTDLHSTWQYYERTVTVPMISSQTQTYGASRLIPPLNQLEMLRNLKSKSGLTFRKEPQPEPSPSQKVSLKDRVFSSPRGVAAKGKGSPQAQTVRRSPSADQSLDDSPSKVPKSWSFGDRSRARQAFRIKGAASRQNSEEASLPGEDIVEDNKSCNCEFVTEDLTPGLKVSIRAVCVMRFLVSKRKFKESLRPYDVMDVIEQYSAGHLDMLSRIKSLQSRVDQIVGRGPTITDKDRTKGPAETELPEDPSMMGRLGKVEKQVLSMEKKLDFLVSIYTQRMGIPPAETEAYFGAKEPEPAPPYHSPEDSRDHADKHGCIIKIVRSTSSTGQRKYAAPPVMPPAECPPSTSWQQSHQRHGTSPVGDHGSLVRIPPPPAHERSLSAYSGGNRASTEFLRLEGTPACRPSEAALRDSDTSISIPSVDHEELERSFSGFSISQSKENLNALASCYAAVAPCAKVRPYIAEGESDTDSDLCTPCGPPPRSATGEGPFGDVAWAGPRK
KCNQ2 inh baseline – also measured in KCNQ2 inh; calls as there; B-score; measured here: initial fluorescence intensity artifact check;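 brightness before thallium and not channel activity; 0 = typical well and far values either way flag optical interference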
* = called active by the depositor; i = inactive. The list is partial; the hit share may differ from the screen's.

KCNQ2 inh baseline | KCNQ2 inh | Compound
-0.02 | i | Cc1cc(S(=O)(=O)Nc2c(C)ccc3nsnc23)ccc1F
-0.08 | i | Cc1ccccc1N1C(=O)CN(Cc2sccc2C)C1=S
-0.06 | i | COC1C(C)=C(C)C(=O)N1Cc1ccccc1 (stereo not drawn)
-0.02 | i | Cc1ccc2c(CC(=O)NCC(C)(C)N3CCOCC3)coc2c1
0.55 | i | COc1ccc(CC(=O)OCc2nnc(C3COc4ccccc4O3)o2)cc1OC (stereo not drawn)
0.37 | i | CCCn1c(Nc2ccccc2C)nc2ccccc21
-0.86 | i | O=C(NCc1ccncc1)C1CCCCC1
-0.38 | i | CCCc1ccc(Oc2c(-c3ccc(O)c(C)c3O)n[nH]c2C)cc1
0.01 | i | COc1ccc2[nH]c(C(=O)O)c(NS(=O)(=O)c3ccc(C)cc3C)c2c1
-1.83 | i | CCCCn1c(N)c(N(CCC(C)C)C(=O)C2CC(=O)N(c3cccc(SC)c3)C2)c(=O)[nH]c1=O (stereo not drawn)
0.24* | -7.18* | Cc1oc2c(c1C(=O)c1ccccc1)C(=O)C(=O)c1ccccc1-2
1.75 | i | COc1ccc(CNC(=O)C2CSCCS2)cc1 (stereo not drawn)
-1.02 | i | Cc1c(NC(=O)c2cc(-c3ccc(O)cc3)on2)c(=O)n(-c2ccccc2)n1C
1.47 | i | O=C(Nc1ccccc1-c1nnc(SCc2ccccc2Cl)o1)c1ccccc1
0.98 | i | Cc1c(C(=O)NC2CCN(Cc3ccccc3)C2)oc2c(Cl)cccc12 (stereo not drawn)
-0.05 | i | Cc1ccc(C(=O)O/N=C(\N)c2ccccn2)cc1
0.26 | i | Cc1cccc(OCC(=O)NNC(=O)CCc2ccccc2)c1
1.8 | i | O=C(NC(=S)NCCCN1CCOCC1)c1ccc(Br)cc1
0.3 | i | O=C(COc1ccc2ccccc2c1)N1CCN(C(=O)c2cccnc2)CC1
-0.68 | i | C=CCn1c(SCC(=O)N2CCN(C(=O)c3ccco3)CC2)nc2sc(CC)cc2c1=O

Some of these compounds in order of the KCNQ2 inh baseline value, rising:
KCNQ2 inh baseline | KCNQ2 inh | Compound
-0.06 | i | COC1C(C)=C(C)C(=O)N1Cc1ccccc1 (stereo not drawn)
-0.05 | i | Cc1ccc(C(=O)O/N=C(\N)c2ccccn2)cc1
0.98 | i | Cc1c(C(=O)NC2CCN(Cc3ccccc3)C2)oc2c(Cl)cccc12 (stereo not drawn)

More structures follow:
KCNQ2 inh baseline | KCNQ2 inh | Compound
0.21 | i | O=C(/C=C/c1ccc(Cl)c(C(F)(F)F)c1)N1CCN(c2ccccn2)CC1
-1.05 | i | COc1ccc(N(C(=O)c2ccncc2)S(=O)(=O)c2cccc([N+](=O)[O-])c2)cc1
-0.88 | i | COc1ccccc1/C=N\NC(=O)c1c(C)nc2ccc(Cl)cn12
-0.57 | i | Cc1ccc(-n2c(=O)c3sccc3n(CC(=O)NC3CCCCC3)c2=O)cc1
0.5 | i | Cc1cc(C)cc(NS(=O)(=O)c2ccc3[nH]c(=O)[nH]c3c2)c1
0.07 | i | Cc1ccc(C(=O)N[C@@H](C)CN2C3=NC[C@H](C)N3C[C@H]2Cc2ccc(O)cc2)cc1Br
0.1 | i | CC(C)CNC(=O)c1cc(-c2ccco2)on1
-1.67 | i | CS(=O)(=O)N1CCN(c2ccc(NC(=O)C(c3ccccc3)c3ccccc3)cc2)CC1
0.2 | i | Cn1cnc([N+](=O)[O-])c1Sc1ncnc2nc[nH]c12
-1.96 | i | O=P(O)(c1ccccc1)c1ccccc1O
-1.34 | i | O=C(Nc1nnc(-c2ccc(Cl)s2)o1)C1CC1
-1.55* | -7.05* | O=C(CCc1cccc(Cl)c1)N1CCCC(Nc2ccccc2)C1 (stereo not drawn)
-2.68 | i | Fc1ccc(F)c(NC(=S)NCCc2ccccc2)c1
0.01 | i | COc1ccc(S(=O)(=O)NC2(C(F)(F)F)NC(=O)N(CCc3ccc(OC)c(OC)c3)C2=O)cc1 (stereo not drawn)
0.07 | i | N/C(=N\OC(=O)CCCOc1ccccc1)c1ccncc1
0.69 | i | O=C(/C=C/c1cccnc1)c1cc(F)ccc1O
0.48 | i | O=C(Nc1ccccc1Sc1ccccc1)c1ccccc1F
1.94 | i | CC(C)c1ccc(C(C(=O)NC2CCCCC2)N(C(=O)c2ccccn2)c2cccnc2)cc1 (stereo not drawn)
0.08 | i | CC(C)(C)NCC(O)(c1ccc(Cl)cc1)c1ccc(Cl)cc1
0.58 | i | C/C(=N\NC(=O)c1cc(C)oc1C)c1ccc2ccccc2c1
0.11 | i | c1ccc(-c2nc(NCc3cccnc3)c3ccccc3n2)cc1
1.1 | i | CC1=C/C(=N\NC(=O)c2ccccc2)CC1
1.66 | i | Cc1ccc(C)c(S(=O)(=O)N2CCCC2CNC(=O)C(=O)NCc2cccs2)c1 (stereo not drawn)
-0.02 | i | COc1ccc(-n2c(Cc3cccn3C)nnc2SCC(=O)Nc2nc(C)cs2)cc1
2.08 | i | CCOC(=O)c1[nH]c(C)c(C(=O)Nc2cc(OC)ccc2OC)c1C
2.06 | i | CSCC[C@H](N)C(=O)N1CCC(C(=O)N[C@@H](Cc2c[nH]c3ccccc23)C(=O)O)CC1
-0.1 | i | Cc1ccc(C(=O)NNC(=O)CSc2n[nH]c(-c3cccnc3)n2)cc1
-0.05 | i | O=C(CN1CCCCCC1)N1c2ccccc2Sc2ccc(C(F)(F)F)cc21
1.22 | i | Cc1cc(Cl)ccc1NC(=S)NCc1ccccc1Cl
0.29 | i | CC(Oc1ccc(Br)cc1Br)C(=O)NC1CCCC1 (stereo not drawn)
-0.56* | -5.86* | CCc1ccccc1Nc1cc(C(=O)NCc2ccccn2)c2ccccc2n1
-0.1* | -8.93* | O=C(Nc1nc(-c2ccccc2)cs1)C1CCCCN1S(=O)(=O)c1ccc(Cl)cc1 (stereo not drawn)
0.99 | i | O=C(CN1C(=O)C(=O)c2ccccc21)c1ccc(Cl)cc1
1.31 | i | Cc1c(C(=O)N(C)c2ccccc2Cl)cnn1-c1ccccc1
-0.82 | i | CC(C)C1=CC(=NS(=O)(=O)c2cccc([N+](=O)[O-])c2)C=C(C(C)C)C1=O
-1.24 | i | CCCCNc1c(C(=O)OCC)c(=O)[nH]c2ccccc12
-0.2 | i | CCCc1c(C(=O)N/N=C/c2cccnc2)nnn1-c1nonc1N
0.46 | i | COc1cccc2sc(NC(=O)c3ccc(Br)s3)nc12
10.3 | i | Cc1ccc(-c2noc(N=O)c2NO)cc1
1.17 | i | COc1ccc2oc(=O)c(C(=O)NCC3CCCO3)cc2c1 (stereo not drawn)

In the list so far, these have a nitro group on carbon:
KCNQ2 inh baseline | KCNQ2 inh | Compound
-1.05 | i | COc1ccc(N(C(=O)c2ccncc2)S(=O)(=O)c2cccc([N+](=O)[O-])c2)cc1
0.2 | i | Cn1cnc([N+](=O)[O-])c1Sc1ncnc2nc[nH]c12
-0.82 | i | CC(C)C1=CC(=NS(=O)(=O)c2cccc([N+](=O)[O-])c2)C=C(C(C)C)C1=O

New compounds follow:
KCNQ2 inh baseline | KCNQ2 inh | Compound
0.1 | i | CC1CCN(C(=S)c2cccc([N+](=O)[O-])c2)CC1
1.04 | i | N#CC1(NC(=O)COC(=O)c2cc(O)c3ccccc3c2O)CCCCC1
-0.24 | i | COC(=O)CCC(=O)NC1CC(C)(C)Cc2c1cnn2-c1ccc(F)cc1 (stereo not drawn)
-1.02 | i | CCOC(=O)c1cc(-c2ccc(/C=C3/C(=O)NC(=O)C(C#N)=C3C)o2)ccc1Cl
-0.22 | i | N#C/C(=C/c1cccc(O)c1)C(=O)NCc1ccc(Cl)cc1
2.11 | i | CCn1c(=O)cc(OCC(=O)Nc2ccccc2C#N)c2ccccc21
0.02 | i | CCOc1ccc(CN2CCNC(=O)C2CC(=O)NCCc2ccccn2)cc1 (stereo not drawn)
0.01 | i | CN(C)c1ccc(P(=O)(Nc2ccccc2)N2CCOCC2)c(NC(=O)c2cccs2)c1 (stereo not drawn)
0.09 | i | Nc1nnnn1/N=C/c1ccc(N2CCCCC2)c([N+](=O)[O-])c1
-0.09 | i | O=C(NC(=S)NNS(=O)(=O)c1ccccc1)c1cccnc1
-1.41 | i | CCOC(=O)N1CCC(Nc2c(-c3ccc(C)cc3)c(=O)c2=O)CC1
-0.88 | i | Cc1ncsc1CCOC(=O)C12CC3CC(CC(C3)C1)C2
0.28 | i | CCCCCCC#Cc1cncc(C(=O)NNC(=O)Nc2cc(Cl)cc(Cl)c2)c1
-0.19 | i | Cc1ccccc1NC(=O)c1cccc(N2C(=O)C3C4CC(C(Br)C4Br)C3C2=O)c1 (stereo not drawn)
0.05 | i | O=C(O)c1c2c(nc3ccc(Cl)cc13)CCC2
0.83 | i | COCCCNC(=O)CNC(=O)c1nn(-c2ccc(OC)cc2)c(=O)c2ccccc12
0.54 | i | CC(Sc1nncs1)C(=O)Nc1ccc(Cl)cn1 (stereo not drawn)
-0.21 | i | COc1cccc(NC(=O)C(=O)c2cn(CC(=O)N3CCOCC3)c3ccccc23)c1
-1.09 | i | COc1ccccc1N(CN1CCCC1=O)C(=O)c1c(F)cccc1F
-0.21 | i | O=C(N/N=C/c1ccc(N2CCOCC2)cc1)c1cccs1
1.34* | -7.03* | CCCCC(CC)CNC(=O)c1ccc2c(c1)OCO2 (stereo not drawn)
0.37 | i | NNC(=O)c1nn(-c2ccccc2)cc1O
-0.06 | i | CS(=O)(=O)N(CC(=O)NCCSc1ccc(Cl)cc1)c1ccc2c(c1)OCO2
0.04 | i | COc1ccc(NC(=O)c2ccc(CNS(=O)(=O)c3cccc(OC)c3)cc2)cc1
0.15 | i | CCOC(=O)c1c(-c2ccc(F)cc2)csc1NC(=O)CCN1C(=O)c2ccccc2C1=O
0.98 | i | COc1ccc(OC)c(N2C(=O)CC(Cc3ccc(Cl)cc3)C2=O)c1 (stereo not drawn)
7.14 | i | CC(=O)/C=C(/C)NC(Cc1c[nH]c2ccccc12)C(=O)O (stereo not drawn)
-0.06 | i | O=C(CCNC(=O)c1ccc(Br)cc1)Nc1ccccc1N1CCCC1
0.26 | i | CCn1c(SCc2cc(=O)n3ccsc3n2)nc2ccccc21
-1.38 | i | CCOC(=O)CN1C(=O)C(=O)N(Cc2c(C)cc(C)cc2C)C1=O
3.26 | i | CCCNC(=O)COC(=O)/C(C#N)=C/c1cc(C)n(CCC)c1C
0.11 | i | COc1ccc(-c2nnn(CC(=O)c3ccccc3)n2)cc1OC
-0.39 | i | Cc1cccc(C)c1NC(=S)N(Cc1cccnc1)Cc1ccccc1Cl
-1.41 | i | COc1ccc(OC)c(NC(=O)CCN2CCC(C)CC2)c1
-0.95 | i | CC(C)CCNC(=O)CCSCCC(=O)NCCC(C)C
1.74 | i | CC(C)c1ccc(NC(=O)C(c2ccccc2)N(Cc2ccco2)C(=O)CC2NC(=O)NC2=O)cc1 (stereo not drawn)
3.19 | i | OCc1cc(Br)ccc1OCc1nc2ccccc2s1
0.55 | i | CC(CCn1cccn1)NC(=O)CCc1nnc(CCc2ccccc2)o1 (stereo not drawn)
0.89* | -6.39* | CCn1c(=O)c2cc(C(=O)N(C)c3cc(C)ccc3OC)sc2c2ccccc21
-0.73 | i | CNC(=O)c1ccsc1NC(=O)c1ccc(S(=O)(=O)N2CCc3ccccc32)cc1
0.85 | i | Cc1cc(NC(=O)CSc2nnc(-c3cccs3)n2N)no1
0.18 | i | COc1cccc(CN(C(=O)c2ccccc2Br)C2CCS(=O)(=O)C2)c1 (stereo not drawn)
3.36 | i | Cc1cc(-c2ccccc2)nc(N/N=C/c2cccnc2)n1
-1.43 | i | COc1cccc(CN(C)CC2CCCN(CCc3ccc(Cl)cc3)C2)c1OC (stereo not drawn)
-1.58 | i | COc1cccc(NC(=O)c2ccc3c(O)c(S(=O)(=O)c4ccccc4)c(=O)[nH]c3c2)c1
1.43 | i | Cc1ccc(-c2ocnc2C(=O)Nc2ccccc2NC(=O)c2ccccn2)cc1
-0.64 | i | CC(C)=CCc1c(-c2ccc(O)cc2O)oc2cc3c(c(O)c2c1=O)C=CC(C)(C)O3
2.11 | i | Cc1nn(C)c(C)c1NC(=S)Nc1ccc(S(=O)(=O)Nc2ncccn2)cc1
-0.25 | i | COc1ccc(Br)cc1CN(C)CC(=O)Nc1ccccc1Cl
-0.32 | i | Cc1ccc(-n2nnnc2SCC(=O)N2CCc3ccccc3C2)c(C)c1
0.1 | i | CCN(CC(=O)NCc1ccc(Cl)cc1)C(=O)c1cc(OC)cc(OC)c1
-0.2 | i | CC(C)(C)OC(=O)NCCCCCc1nnc(SCc2cccc(F)c2)o1
-0.06 | i | COc1cc(/C=N/NC(=O)C(=O)NCc2ccco2)ccc1O
1.51 | i | CNC(=O)CN(C1CCCCC1)S(=O)(=O)c1ccc(OC)c(Cl)c1
0.78 | i | Cc1ccc(C)c(N(C)C(=O)CCS(=O)(=O)c2cccc3nonc23)c1
0.13 | i | COC(c1ccccc1)c1nnc(CCC(=O)N2CCN(C3CCCC3)CC2)o1 (stereo not drawn)
-0.08 | i | Cc1ccccc1OCCCc1c(C)n[nH]c1C
0.97 | i | CCn1nc(C)c(CN2CCC(n3nccc3NC(=O)c3ccccc3OC)CC2)c1C
-1.98 | i | CCN(CC(=O)Nc1ccc(NC(C)=O)cc1)C(=O)/C=C/c1cn(-c2ccccc2)nc1-c1ccc(F)cc1
2.17 | i | CSCCC1C(C#N)=C(N)Oc2n[nH]c(-c3cccs3)c21 (stereo not drawn)
0.01 | i | COCCN(C(=O)CCC(=O)Nc1cc(C)on1)C(C(=O)NC1CCCC1)c1ccc(C)cc1 (stereo not drawn)

Retrieved by compound from the list above:
KCNQ2 inh baseline | KCNQ2 inh | Compound
1.43 | i | Cc1ccc(-c2ocnc2C(=O)Nc2ccccc2NC(=O)c2ccccn2)cc1
-0.2 | i | CC(C)(C)OC(=O)NCCCCCc1nnc(SCc2cccc(F)c2)o1
